WNV NS2B-NS3 inh – inhibitors of West Nile virus NS2B-NS3 protease | z-score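 (tested at a level between 10 and 100 µM)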 | 0.18% of 65,000 active | WNV NS2B-NS3 protease, fluorogenic substrate Ex360/Em465; stronger effect = lower value;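 active means z-score at -3 or under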;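 further: score is relative to mean and spread of the compound wells of a plate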
Target sequence (P06935 1371-1501 limits assumed): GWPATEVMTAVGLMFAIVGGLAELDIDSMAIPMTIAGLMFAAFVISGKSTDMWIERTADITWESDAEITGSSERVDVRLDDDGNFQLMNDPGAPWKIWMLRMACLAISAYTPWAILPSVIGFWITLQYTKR
Target sequence (P06935 1502-1679 limits assumed): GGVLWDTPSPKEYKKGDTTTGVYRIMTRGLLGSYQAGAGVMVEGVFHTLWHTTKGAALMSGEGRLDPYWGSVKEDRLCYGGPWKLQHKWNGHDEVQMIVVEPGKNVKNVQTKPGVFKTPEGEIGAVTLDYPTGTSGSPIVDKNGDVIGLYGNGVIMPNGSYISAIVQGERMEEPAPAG
MT1-MMP promoter – inhibitors of MT1-MMP promoter transcription, cell-based, luciferase reporter, luminescence (AID 618); MT1-MMP promoter luciferase reporter cells, luminescence; calls from a first round at 10 µM; hits with a dose series show EC50 in µM; 0.62% of 87,000 active;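 active means over half of the reporter light lost at 10 µM or EC50 under 50 µM; inactive means the rest and hits that failed the dose series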;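 further: actives suppress MT1-MMP promoter-driven transcription so potencies describe inhibitors; HT1080 fibrosarcoma cells; overnight exposure; toxic or luciferase-blocking compounds were not removed from the actives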
Hsc70 – Hsc70 inhibitors, probe displacement, primary screen, biochemical, fluorescence polarization (AID 568). Hsc70 fluorescence polarization, probe displacement; higher % means a stronger effect; strong numbers were not always called active. displacement, % at 20 µM, or IC50 in µM where a hit was titrated. 83,000 tested, under 10 active;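 active means displacement above 50% without optical interference and an IC50 on retest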;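 further: ATPase domain with a fluorescein-tagged ATP probe; 0% = vehicle and 100% = excess ADP; read after one hour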
Starred values were filed as active, the others as inactive. A portion of the library; rates above refer to the full screens.

How did COC(=O)c1c(NC(=O)c2nc3ncccn3n2)sc(C(=O)N(C)C)c1C do in these assays?
WNV NS2B-NS3 inh: -1.5; MT1-MMP promoter: inactive; Hsc70: -0.2%

What do the screens show for `COCCCNC(=O)CSC1=Nc2ccccc2C2=NC(CC(=O)NCc3ccccc3)C(=O)N12` (stereo not given)?
WNV NS2B-NS3 inh: 1.4; MT1-MMP promoter: inactive; Hsc70: 1.4%

How did COc1ccc(CCNC(=O)CC2COc3ccccc3O2)cc1OC (stereo not given) do in these assays?
WNV NS2B-NS3 inh: 0.33; MT1-MMP promoter: inactive; Hsc70: -4.7%

How did COCCNC(=O)Cn1nc(C)c2ccccc2c1=O do in these assays?
WNV NS2B-NS3 inh: -0.5; MT1-MMP promoter: inactive; Hsc70: -4.0%

Results for CCN(CC)C(=O)c1sc2nc(-c3ccc(OC)cc3)cn2c1C ?
WNV NS2B-NS3 inh: -0.69; MT1-MMP promoter: inactive; Hsc70: -4.0%

How did O=S(=O)(Nc1ccc(S(=O)(=O)N2CCCCCC2)cc1)c1cccs1 do in these assays?
MT1-MMP promoter: inactive; Hsc70: 1.9%

What do the screens show for `CCOC(=O)c1c(C)[nH]c2cc(Br)c(OC)cc12`?
MT1-MMP promoter: inactive; Hsc70: -20%

What do the screens show for `Cc1ccc(C(c2nnnn2C(C)(C)C)N2CCC(C)CC2)cc1` (stereo not given)?
MT1-MMP promoter: inactive; Hsc70: 13%

How did COc1ccc(S(=O)(=O)NCc2ccccn2)c(Cl)c1Cl do in these assays?
WNV NS2B-NS3 inh: 0.59; MT1-MMP promoter: inactive; Hsc70: 0.9%

What do the screens show for `COc1ccc(S(=O)(=O)N(CC(=O)NCc2ccco2)c2ccccc2)cc1`?
MT1-MMP promoter: inactive; Hsc70: -1.5%

How did Cc1cc2c(cc1C)N(C(=O)CSc1nncn1C)C(C)(C)c1ssc(=S)c1-2 do in these assays?
MT1-MMP promoter: inactive; Hsc70: 0.4%

Results for CCSc1nnc(-c2ccccc2NC(=O)CC)c(=O)[nH]1 ?
WNV NS2B-NS3 inh: 0.46; MT1-MMP promoter: inactive; Hsc70: -4.7%

What do the screens show for `COc1ccc(OCC(=O)Nc2ccc(S(=O)(=O)Nc3cc(C)nc(C)n3)cc2)cc1`?
WNV NS2B-NS3 inh: -0.44; MT1-MMP promoter: inactive; Hsc70: -5.2%

Results for O=C(NCCCCc1ccccc1)c1ccc(Br)o1 ?
MT1-MMP promoter: inactive; Hsc70: -3.5%

How did COC(=O)c1ccc(NC(=O)CSc2nncn2C)cc1 do in these assays?
WNV NS2B-NS3 inh: -1.1; MT1-MMP promoter: inactive; Hsc70: 0.4%

What do the screens show for `Cc1nnc2c(-c3ccccc3)nc3ccccc3n12`?
WNV NS2B-NS3 inh: 1.1; MT1-MMP promoter: inactive; Hsc70: 5.3%

Results for CC(C)CC(=O)N1CCN(CC2CC=CCC2)CC1 (stereo not given) ?
MT1-MMP promoter: inactive; Hsc70: -2.5%

How did O=C(NCc1ccccc1)N1CCC(n2cnc3cc(F)ccc32)CC1 do in these assays?
WNV NS2B-NS3 inh: 0.71; MT1-MMP promoter: inactive; Hsc70: 0.8%

Results for Cc1ccc(OCC(=O)N/N=C\c2ccco2)c(C)c1 ?
MT1-MMP promoter: inactive; Hsc70: 2.6%

What do the screens show for `Cc1ccccc1NS(=O)(=O)c1cc(C(=O)NCc2ccco2)ccc1C`?
WNV NS2B-NS3 inh: -0.65; MT1-MMP promoter: inactive; Hsc70: -3.8%

Five records drawn at random from those above:
What do the screens show for `CCOC(=O)c1c(C)[nH]c2cc(Br)c(OC)cc12`?
MT1-MMP promoter: inactive; Hsc70: -20%

How did COC(=O)c1ccc(NC(=O)CSc2nncn2C)cc1 do in these assays?
WNV NS2B-NS3 inh: -1.1; MT1-MMP promoter: inactive; Hsc70: 0.4%

What do the screens show for `Cc1nnc2c(-c3ccccc3)nc3ccccc3n12`?
WNV NS2B-NS3 inh: 1.1; MT1-MMP promoter: inactive; Hsc70: 5.3%

How did COCCNC(=O)Cn1nc(C)c2ccccc2c1=O do in these assays?
WNV NS2B-NS3 inh: -0.5; MT1-MMP promoter: inactive; Hsc70: -4.0%

How did Cc1cc2c(cc1C)N(C(=O)CSc1nncn1C)C(C)(C)c1ssc(=S)c1-2 do in these assays?
MT1-MMP promoter: inactive; Hsc70: 0.4%

(continued)
What do the screens show for `C/C(=N\S(=O)(=O)c1ccc(C)cc1)N1CCN(S(=O)(=O)c2ccccc2)C1C(C)C` (stereo not given)?
MT1-MMP promoter: inactive; Hsc70: 2.5%

How did Cc1cc(C(F)(F)F)n2nc(C(=O)O)c(Cl)c2n1 do in these assays?
WNV NS2B-NS3 inh: -0.07; MT1-MMP promoter: inactive; Hsc70: 2.3%

What do the screens show for `CCOC(=O)CN1CC23C=CC(O2)C(C(=O)Nc2ccc(C(C)=O)cc2)C3C1=O` (stereo not given)?
WNV NS2B-NS3 inh: 0.06; MT1-MMP promoter: inactive; Hsc70: 5.9%

What do the screens show for `Cc1cccn2c(=O)c3cc(C(=O)NC(C)C)c(=N)n(Cc4ccncc4)c3nc12`?
WNV NS2B-NS3 inh: 2.6; MT1-MMP promoter: inactive; Hsc70: -1.1%

What do the screens show for `Cc1cc(=O)[nH]c(SCC(=O)Nc2ccc(Br)cn2)n1`?
WNV NS2B-NS3 inh: 0.64; MT1-MMP promoter: inactive; Hsc70: 3.8%

What do the screens show for `COc1cc(NC(=O)CN(c2cc(C)cc(C)c2)S(=O)(=O)c2c(C)noc2C)cc(OC)c1`?
WNV NS2B-NS3 inh: 0.26; MT1-MMP promoter: inactive; Hsc70: -0.3%

Results for COc1ccc(NC(=O)C2CCN(C(=O)NC3CCCCC3)CC2)c(OC)c1 ?
WNV NS2B-NS3 inh: 0.87; MT1-MMP promoter: inactive; Hsc70: -1.3%

What do the screens show for `COCCn1c(C)cc(C2=NNC(=Nc3ccc(OC)cc3)SC2)c1C`?
MT1-MMP promoter: inactive; Hsc70: 2.1%

How did CCC(C)NC(=O)CNS(=O)(=O)c1ccc(C)cc1 (stereo not given) do in these assays?
MT1-MMP promoter: inactive; Hsc70: 6.4%

How did Cc1ccc(N(C(=O)Cn2nnc3ccccc32)C(C(=O)NC2CCCCC2)c2cn(C)nc2C)cc1 (stereo not given) do in these assays?
WNV NS2B-NS3 inh: -0.27; MT1-MMP promoter: inactive; Hsc70: 0.2%

What do the screens show for `CSc1c(C#N)c(N)c(C#N)c2c1COC(C)(C)C2`?
WNV NS2B-NS3 inh: 0.17; MT1-MMP promoter: inactive; Hsc70: 1.5%

Results for CCCN1C2CCCC1CC(NC(=O)c1cc(OC)c(OC)c(OC)c1)C2 (stereo not given) ?
WNV NS2B-NS3 inh: -0.45; MT1-MMP promoter: inactive; Hsc70: 2.8%

How did O=C(CSc1nnc(-c2cccnc2)n1C1CCCCC1)NC1CCCCC1 do in these assays?
WNV NS2B-NS3 inh: 1.1; MT1-MMP promoter: inactive; Hsc70: 3.9%

What do the screens show for `O=C(NCC1CCCO1)C1CCN(C(=O)c2ccc(Br)cc2)CC1` (stereo not given)?
WNV NS2B-NS3 inh: -0.66; MT1-MMP promoter: inactive; Hsc70: -1.8%

Results for CCCCC(=O)NC(Nc1cc(C)ccn1)(C(=O)OCC)C(F)(F)F (stereo not given) ?
WNV NS2B-NS3 inh: -0.0005; MT1-MMP promoter: inactive; Hsc70: -6.0%

How did CCOC(=O)C1CCN(CC(=O)N2C(C)CCCC2C)CC1 (stereo not given) do in these assays?
WNV NS2B-NS3 inh: 0.59; MT1-MMP promoter: inactive; Hsc70: -3.7%

Results for O=C(c1cc(Cl)cc(Cl)c1)N1CCOCC1 ?
WNV NS2B-NS3 inh: 0.13; MT1-MMP promoter: inactive; Hsc70: 1.4%

How did COC(=O)C(C)NC(=O)C12CC3CC(CC(C3)C1)C2 (stereo not given) do in these assays?
WNV NS2B-NS3 inh: -1.1; MT1-MMP promoter: inactive; Hsc70: 4.2%

How did COCCCNC(=O)COc1ccc(S(=O)(=O)Nc2ccccc2)cc1 do in these assays?
WNV NS2B-NS3 inh: -0.31; MT1-MMP promoter: inactive; Hsc70: 1.5%

What do the screens show for `COc1ccc(CCn2c(NCCCN3CCOCC3)nc3c2c(=O)[nH]c(=O)n3C)cc1`?
WNV NS2B-NS3 inh: 1.2; MT1-MMP promoter: inactive; Hsc70: 2.2%

How did O=c1[nH]c2ccc(Cl)cc2c(-c2ccccc2)c1SC(=S)N1CCOCC1 do in these assays?
MT1-MMP promoter: inactive; Hsc70: 5.3%

What do the screens show for `Cn1c(=O)c2cc(S(=O)(=O)NCCC(=O)NCCc3ccc(Cl)cc3)ccc2n(C)c1=O`?
WNV NS2B-NS3 inh: 0.67; MT1-MMP promoter: inactive; Hsc70: -5.1%

Results for COc1ccc(OC)c(C(C)NC(=O)c2ccco2)c1 (stereo not given) ?
WNV NS2B-NS3 inh: -0.48; MT1-MMP promoter: inactive; Hsc70: -1.4%

How did CC(C)NS(=O)(=O)c1ccc(CCC(=O)NCc2ccco2)cc1 do in these assays?
WNV NS2B-NS3 inh: -0.34; MT1-MMP promoter: inactive; Hsc70: 1.7%

How did COc1ccc(C)cc1S(=O)(=O)N1CCN(Cc2ccccc2)CC1 do in these assays?
WNV NS2B-NS3 inh: 0.1; MT1-MMP promoter: inactive; Hsc70: -1.9%

How did O=C(O)CN=C(NS(=O)(=O)c1ccccc1)c1ccccc1 do in these assays?
WNV NS2B-NS3 inh: -1.3; MT1-MMP promoter: inactive; Hsc70: 3.1%

How did COC(=O)[C@@H](NC(=O)NCc1ccccc1Cl)C(C)C do in these assays?
WNV NS2B-NS3 inh: -0.1; MT1-MMP promoter: inactive; Hsc70: -0.9%

How did COc1nc(-c2ccccc2)ccc1-c1noc(-c2cccs2)n1 do in these assays?
WNV NS2B-NS3 inh: -0.27; MT1-MMP promoter: inactive; Hsc70: -39%

How did N=C1C(c2nc3ccccc3[nH]2)=C(O)CN1c1ccc(CC(=O)O)cc1 do in these assays?
MT1-MMP promoter: inactive; Hsc70: -2.2%

What do the screens show for `CCn1c(SCC(=O)N2c3ccccc3CC2C)nnc1-c1ccco1` (stereo not given)?
MT1-MMP promoter: inactive; Hsc70: 3.1%

What do the screens show for `Cc1oc(C(=O)O)cc1COc1ccc2c3c(c(=O)oc2c1C)CCCC3`?
WNV NS2B-NS3 inh: -0.07; MT1-MMP promoter: inactive; Hsc70: 3.2%

What do the screens show for `CC(C)N(Cc1nc(-c2ccc(Cl)cc2)no1)C(=O)CCCN1C(=O)c2ccccc2C1=O`?
WNV NS2B-NS3 inh: -0.92; MT1-MMP promoter: inactive; Hsc70: -2.0%

What do the screens show for `Cc1ccc(CNC(=O)CCCn2c(=O)c3ccccc3n(CC(=O)NC3CCCC3)c2=O)cc1`?
WNV NS2B-NS3 inh: 0.51; MT1-MMP promoter: inactive; Hsc70: 6.1%

What do the screens show for `CN(C)/C=C1\N=C(c2ccc(Cl)cc2Cl)OC1=O`?
WNV NS2B-NS3 inh: 0.4; MT1-MMP promoter: inactive; Hsc70: -7.4%

How did COC(=O)C1=C(N)Oc2cc(C)n(Cc3ccco3)c(=O)c2C1c1cccc(Cl)c1 (stereo not given) do in these assays?
WNV NS2B-NS3 inh: -0.25; MT1-MMP promoter: inactive; Hsc70: -6.3%

What do the screens show for `CC(C)C[C@H](NC(=O)Nc1ccc(S(N)(=O)=O)cc1)C(=O)O`?
WNV NS2B-NS3 inh: 0.94; MT1-MMP promoter: inactive; Hsc70: -3.0%

Results for O=C1CSC(c2cn(-c3ccccc3)nc2-c2ccc3c(c2)OCCO3)N1CCN1CCOCC1 (stereo not given) ?
WNV NS2B-NS3 inh: -1.2; MT1-MMP promoter: inactive; Hsc70: -2.2%

Results for Cc1c(C=NCCOCc2ccccc2)cnn1C ?
WNV NS2B-NS3 inh: -0.25; MT1-MMP promoter: inactive; Hsc70: -1.6%

How did Cc1nc2ccccn2c1C(=O)NCc1cccnc1 do in these assays?
WNV NS2B-NS3 inh: 0.0069; MT1-MMP promoter: inactive; Hsc70: -5.1%

Results for Cc1ccccc1-c1nc(-c2ccc(NC(=O)c3ccc(Br)o3)cc2)no1 ?
MT1-MMP promoter: inactive; Hsc70: 3.2%

A draw from above in order of heavy-atom count, smallest number first:
How did O=C(NCc1ccccc1)N1CCC(n2cnc3cc(F)ccc32)CC1 do in these assays?
WNV NS2B-NS3 inh: 0.71; MT1-MMP promoter: inactive; Hsc70: 0.8%

How did COC(=O)C1=C(N)Oc2cc(C)n(Cc3ccco3)c(=O)c2C1c1cccc(Cl)c1 (stereo not given) do in these assays?
WNV NS2B-NS3 inh: -0.25; MT1-MMP promoter: inactive; Hsc70: -6.3%

What do the screens show for `COc1cc(NC(=O)CN(c2cc(C)cc(C)c2)S(=O)(=O)c2c(C)noc2C)cc(OC)c1`?
WNV NS2B-NS3 inh: 0.26; MT1-MMP promoter: inactive; Hsc70: -0.3%

Bioassay records (PubChem)
